Beta cell apopt – blocks beta cell apoptosis. INS-1E cytokine-induced death, ATP luminescence, 48 h; percent of positive-control rescue, neutral wells zero. protection from apoptosis, % (concentration not given with the values). actives 0.8% (n = 300,000). AID 435005;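 active = all replicates at 75% or more, or half of them and the mean; inconclusive = half reach 75% but not the mean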;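 note: 0% = cytokine-treated negative control wells and 100% = positive control rescue; higher means more ATP so stronger rescue from cytokine killing; wells of about 40 µL received 100 nL stock; the first replicate is given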
ALR H2O2 inh – blocks human ALR sulfhydryl oxidase activity | purified ALR, DTT oxidation, H2O2 HRP-luminol luminescence | inhibition, % (concentration not given with the values) | actives 3.8% (n = 290,000);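 active = mean and each replicate at 75% or more; inconclusive = only one of the two met; inactive = neither met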;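 note: stock transfer was 7.5 nL into about 7.5 µL; 0% = neutral wells and 100% = wells with inactivated enzyme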
Target sequence (P55789 whole entry, looked up): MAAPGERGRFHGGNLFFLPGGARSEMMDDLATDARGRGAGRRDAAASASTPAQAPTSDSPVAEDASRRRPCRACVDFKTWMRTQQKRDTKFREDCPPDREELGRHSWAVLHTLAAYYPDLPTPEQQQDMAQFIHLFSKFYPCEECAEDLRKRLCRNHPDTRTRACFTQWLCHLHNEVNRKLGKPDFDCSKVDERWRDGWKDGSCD
LANA-H2A inh – blocks KSHV LANA binding to histone H2A/H2B. Q9QR71. cell-free LANA-H2A/H2B peptide, fluorescence polarization. inhibition, % (test concentration not listed). actives 0.6% (n = 320,000); in the data active = inhibition mostly above about 10%, no sharp cut-off; inactive = mostly below about 6.7%;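 note: stock transfer was 7.5 nL into about 10 µL; 0% = median of vehicle wells and 100% = median of positive control wells; one replicate is shown; the record names a cut of 25% in any replicate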
A1 inh – inhibitors of the anti-apoptotic protein A1, read as caspase activation; MEF A1-2A-BIM cells, Caspase-Glo 3/7 luminescence, 3 h; percent of clofoctol response, vehicle zero; caspase activation, % (concentration not given with the values); actives 0.066% (n = 330,000);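 active = over half of replicate activation scores above 10%, or exactly half above 10 with the replicate mean above 10; inconclusive = replicate mean below 10 yet half the replicates above 10; inactive = over half of replicates below 10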;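 note: wells of about 30 µL received 50 nL stock; many hits fall short of the cut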
rRNA inh HTS – selective bacterial rRNA inhibition in E. coli | E. coli WT GFP vs humanized-ribosome RFP mutants, fluorescence, 24 h; active compounds read low; DMSO median 0, no signal -100 | GFP signal change (wild-type ribosome), % (concentration not given with the values) | actives 1.6% (n = 350,000);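 active = significant combined selectivity score with lowered wild-type GFP, culture density cut under 30%, mutant RFP and density less affected; inactive = any of these conditions unmet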; note: one replicate is shown; some compounds called inactive have numbers as strong as hits
B2AR ag – agonists of human beta-2 adrenergic receptor inducing internalization | P07550 | Am2.2-beta2AR cells, FAP receptor internalization, flow cytometry; reference of the scale not given here | response, % (concentration not given with the values) | actives 0.43% (n = 340,000);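 active = response above a set limit, near 3 SD of response in nonfluorescent compounds, cut at about 42% in these data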;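 note: stock transfer was 100 nL into about 11 µL; a reference agonist was the positive control; negative values mostly stem from fluorescent compounds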
Target sequence (P07550 whole entry, looked up): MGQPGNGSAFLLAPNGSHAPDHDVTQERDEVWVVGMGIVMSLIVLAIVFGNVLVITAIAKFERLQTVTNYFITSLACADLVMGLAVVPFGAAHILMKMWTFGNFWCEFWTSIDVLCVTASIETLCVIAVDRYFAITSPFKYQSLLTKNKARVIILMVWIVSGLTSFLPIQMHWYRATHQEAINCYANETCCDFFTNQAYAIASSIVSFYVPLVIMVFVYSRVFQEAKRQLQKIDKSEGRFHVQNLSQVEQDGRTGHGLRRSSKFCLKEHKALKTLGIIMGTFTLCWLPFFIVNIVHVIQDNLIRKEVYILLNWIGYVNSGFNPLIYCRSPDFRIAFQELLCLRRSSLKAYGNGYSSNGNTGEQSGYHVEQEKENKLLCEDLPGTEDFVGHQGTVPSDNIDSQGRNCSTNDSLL
Calb FLC – C. albicans growth modulation with fluconazole. C. albicans CaCi-2 (fluconazole-resistant clinical isolate) + fluconazole, Alamar Blue growth, 48 h. actives 0.57% (n = 300,000). growth inhibition, % (concentration not given with the values);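 active = most replicates above 75%; inconclusive = exactly half above 75%; inactive = most below 75%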;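 note: all wells also contain fluconazole at 8 µg/ml as a sub-toxic cotreatment; 0% = median of DMSO wells and 100% = median of geldanamycin control wells; wells of about 8 µL received 7.5 nL stock; the first replicate is given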
T cruzi inh – T. cruzi replication inhibition; T. cruzi beta-gal in NIH3T3, luminescence, 90 h; inhibition, % (no concentration beside the values); actives 1.4% (n = 300,000); AID 1885;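 active = mean inhibition across valid replicates above about 55%, limit read from the data; inconclusive = mean below that limit but half or more replicates reach it; inactive = mean below it, under half of replicates reach it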;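 note: signal also drops with host cell toxicity which is not excluded here; 0% = plate median of DMSO wells and 100% = zero luminescence signal; higher percent means less beta-gal luminescence so fewer parasites; stock transfer was 50 nL into about 50 µL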
rRNA inh HTS OD600 – recorded beside rRNA inh HTS, whose call it bears; OD600 change, %; measured here: OD600 growth;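 optical density of the mix in the first replicate; 0 = DMSO median and -100 = no signal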
rRNA inh HTS RFP – recorded beside rRNA inh HTS, whose call it bears; RFP signal change, %; measured here: RFP humanized mutant strains;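 first replicate; 0 = DMSO median and -100 = no signal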
An asterisk follows results filed as active; u = inconclusive; x = no result given; & = joins results of further samples; ! = repeats disagree.

SMILES	Beta cell apopt	ALR H2O2 inh	LANA-H2A inh	A1 inh	rRNA inh HTS	rRNA inh HTS OD600	rRNA inh HTS RFP	B2AR ag	Calb FLC	T cruzi inh
C[N+]1(C)C2CCC1CC(OC(=O)c1ccccc1)C2 (configuration not stated)	-9	-3	-5.5	0.0	15	2	-3.7	-26	4	-12
O=C1NC(=O)C(CCc2ccncc2)(C2CCCCC2)C(=O)N1	-8	x	1.1	1.3	x	x	x	3	-4	x
Cc1cc(=O)oc2cc(OCC(=O)N3CCN(Cc4ccc5c(c4)OCO5)CC3)ccc12	x	-4	-3.0	1.0	-6	-4	2.0	4	-6	13
c1ccc2nc(N3CCNCC3)ccc2c1	0	-7	-0.5	-0.2	-2	-3	-2.0	-7&-5	x	x
CN(N)N=Nc1nc2c([nH]1)c(=O)n(C)c(=O)n2C	-2	-5	-3.0	-1.5	13	10	0.6	1	1	-23
CCOC(=O)C1=C(N)Oc2cc(C)oc(=O)c2C12C(=O)N1c3c(cccc32)C(C)CC1(C)C (configuration not stated)	-1	-5	33*	0.7	1	1	9.4	2	-3	8
C[C@H]1CC2C3CC=C4C[C@@H](O)CC[C@]4(C)C3CC[C@]2(C)[C@H]1O (some centres not stated)	-6	-1	0.5	-0.3	-7	-1	0.1	2	x	x
CC(C)N(Cc1ccco1)/N=C/c1c(O)n(Cc2ccccc2)c(=O)[nH]c1=O	2	11	3.0	-0.7	x	x	x	-14	-11	3
CC1CCN(CC(=O)c2cccc(C(F)(F)F)c2)CC1	-6	56	1.0	-0.9	3	7	1.2	-3	-4	-2
COC(=O)C1=C(c2ccc(Cl)c(C(F)(F)F)c2)C[C@@H]2CC[C@H]1N2C(=O)NC(C)C	-5	0	1.0	0.6	-22	-19	-5.8	-2	x	x
COC(=O)C1=C(c2cccc(C#N)c2)C[C@@H]2CC[C@H]1N2C(=O)NCCOc1ccc(OC)cc1	-1	-1	2.2	-0.8	10	10	-1.7	0	x	x
CCN1CCN(S(=O)(=O)c2ccc(Cl)nc2)CC1	1	-2	1.2	-0.1	x	x	x	-6	-2	-1
O=C1CC(N2CC=C(c3ccccc3)CC2)C(=O)N1c1ccc(F)cc1 (configuration not stated)	-16	x	0.0	0.8	11	8	3.7	-3	-2	8
CC(=O)N1CC(=O)Nc2ccc(Cl)cc2C1c1ccccc1 (configuration not stated)	-1	2	5.9	-0.1	12	7	-1.9	-1	-7	-1
CC(C)(C)c1ccc(O)c(N=Cc2c(O)ccc3ccccc23)c1	x	-39	11	-0.3	10	-1	-3.9	-324	-4	19
CC1CCC(C)(NS(=O)(=O)OCC(Cl)(Cl)Cl)CC1 (configuration not stated)	5	-13	-3.4	0.5	-31	-29	9.1	-7	-32	23
COc1ccc(OC)c([C@@H](O)[C@H](C)NC(C)(C)C)c1	-1	-23	-2.8&1.9	-0.2	-1	9	-3.5	-5	x	17
O=c1[nH]c(=O)n(Cc2ccccc2Cl)c(O)c1C=Nc1ccc(F)cc1	-12	-9	-3.9	0.2	x	x	x	9	1	-29
BrCC1C[n+]2c(SCc3ccccc3)nc3sc4c(c3c2O1)CCCC4 (configuration not stated)	x	-6	-6.8	-0.3	-25	-31	-4.8	-3	-5	-21
Cc1cc(N2CCN(C)CC2)nc2ccccc12	x	x	2.9	0.9	12	-2	-0.5	4	2	49
COC(=O)C(C)Oc1cc(C)cc2oc(=O)c3c(c12)CCCC3 (configuration not stated)	4	-6	-1.0	0.5	x	x	x	-4	-3	3
O=P(NS(=O)(=O)c1ccc(Br)cc1)(Oc1ccccc1)Oc1ccccc1	-3	64	1.5	0.1	-4	-10	3.3	-1	1	-3
O=P(Nc1cccc(F)c1)(Oc1ccccc1F)Oc1ccccc1F	-2	-12	3.1	-2.5	-30	-33	10	11	-3	5
CCOC(=O)c1cc(C)sc1/N=C/C1C(=O)NC(=S)NC1=O	-1	16	-12	-0.8	8	10	1.8	3	-1	-12
CCOC(=O)C(NC(=O)C(Cc1ccc(N(CCCl)CCCl)cc1)NC(C)=O)C(C)C (configuration not stated)	38	4	-3.1	-0.6	8	5	-5.4	3	-1	-8

Following part.
SMILES	Beta cell apopt	ALR H2O2 inh	LANA-H2A inh	A1 inh	rRNA inh HTS	rRNA inh HTS OD600	rRNA inh HTS RFP	B2AR ag	Calb FLC	T cruzi inh
COc1ccc(CN2C(=O)NC(=O)/C(=C\c3cc(OC)c(OC)c(OC)c3)C2=O)cc1	4	5	-0.7	1.1	6	25	2.1	4	-2	0
Cc1ccc(OP(=O)(Nc2cccc(C)c2)Oc2ccc(C)cc2)cc1	2	-16	-3.4	2.6	3	-11	-5.2	15	-6	34
COC(=NC1CCCC1)C(O)c1c[nH]c2ccccc12 (configuration not stated)	12	x	0.1	0.0	x	x	x	7	-6	2
COc1ccc(OC)c(N2C(=O)/C(=C/c3ccco3)C(=O)NC2=S)c1	-3	4	-2.5	1.0	x	x	x	x	-2	-4
O=P(C(Cl)Cl)(N1CCOCC1)N1CCOCC1	-1	x	-5.2	-0.4	8	18	0.6	3	-4	-11
CSCCC(N=Cc1c(O)n(-c2ccc(Br)cc2)c(=O)[nH]c1=O)C(=O)OC(C)(C)C (configuration not stated)	1	0	0.5	1.1	x	x	x	-5	1	-1
C=CCN1C(=O)/C(=C/c2cc(C)n(-c3cccnc3)c2C)C(=O)NC1=S	-4	x	4.9	0.0	x	x	x	20	4	1
O=C(CCNS(=O)(=O)c1ccccc1)Nc1ccc(Cl)cc1C(=O)c1ccccc1	3	-4	4.5	1.4	x	x	x	2	-1	-2
CCN1CCC2(CCNC2)C1 (configuration not stated)	2	1	2.4	-0.5	x	x	x	17	4	-20
CN(C)C1(CNC(=O)Nc2ccc(Cl)c(Cl)c2)CCCCC1	x	-8	-6.5	0.5	-4	-39	1.4	38	3	41
O=c1[nH]c(=S)n(C2CC2)c(O)c1/C=N/Nc1cccc2ccccc12	11	-5	-0.1	1.5	x	x	x	-5	-25	2
CCOP(=O)(OCC)C(O)c1cccc([N+](=O)[O-])c1 (configuration not stated)	-6	-3	-1.1	1.0	17	2	4.2	3	u	-4
CC(C)C[C@H]1C(=O)N2CCCC2[C@]2(O)O[C@](NC(=O)[C@@H]3C=C4c5cccc6[nH]cc(c56)CC4N(C)C3)(C(C)C)C(=O)N12 (some centres not stated)	1	-52	21*!	0.3	x	x	x	0	x	3
COC(=O)C1=C(c2cccc(OCc3ccccc3)c2)C[C@@H]2CC[C@H]1N2C(=O)NCc1ccccc1	-5	-1	-0.6	-2.5	-5	-5	1.3	10	x	x
CC(=NCCC(c1ccccc1)c1ccccc1)c1c(O)n(C)c(=O)n(C)c1=O	7	x	-4.8	-0.8	x	x	x	-8	-5	3
COC(=O)C1=C(c2cccc(OCc3ccccc3)c2)C[C@@H]2CC[C@H]1N2C(=O)NCCOc1ccc(OC)cc1	-7	-6	-0.7	-0.2	-1	9	-4.8	-9	x	x
CCOC(=O)C1(CCc2ccccc2)CCN(C2CCSCC2)CC1	-4	3	0.3	0.0	-10	-7	-0.7	19	33	18
O[C@@H]1CCCC[C@H]1N1CCC(c2ccccc2)CC1	0	x	-4.0	-1.6	6	12	1.8	-10	-7	3
CCOc1cc(C2NCc3ccccc3-n3cccc32)ccc1OC (configuration not stated)	-3	-5	-3.0	0.7	3	6	0.0	2	-1	17
CN1CCCN(C(=O)COc2ccccc2)CC1	x	3	3.2	-0.7	8	8	-0.7	-1	3	0
C[n+]1c(-c2ccccc2)sc2ccccc21	3	8	-2.4	0.0	6	8	-0.7	-7	2	8
NP(=O)(OCC(F)(F)F)Oc1ccccc1 (configuration not stated)	3	x	-0.4	0.0	x	x	x	7	-19	-8
c1ccc(CCNC2CCCCCC2)cc1	-4	7	0.0	1.0	12	14	0.6	-12	-8	12
Cc1cccc(OP(=O)(Nc2cccnc2)Oc2cccc(C)c2)c1	-2	0	0.1	1.8	x	x	x	2	-14	53
CCN(CC)C(=O)c1ccc(NC(=O)COc2ccccc2F)cc1	-2	-3	-2.9	-2.9	12	10	-0.6	8	0	0

(listing goes on)
SMILES	Beta cell apopt	ALR H2O2 inh	LANA-H2A inh	A1 inh	rRNA inh HTS	rRNA inh HTS OD600	rRNA inh HTS RFP	B2AR ag	Calb FLC	T cruzi inh
Cc1cc(C=O)c(C)n1C1CC1	-4	-5	-2.2	1.4	10	9	2.9	1	-8	-3
CC(=Nc1ccc2c(c1)CCC2)c1c(O)n(-c2ccccc2)c(=O)[nH]c1=O	-1	x	0.1	0.3	x	x	x	-6	-4	2
COC(=O)C1=C(c2ccc(F)cc2OCc2ccccc2)C[C@@H]2CC[C@H]1N2C(=O)NCc1ccccc1Br	10	-3	-2.6	0.1	16	10	4.9	-1	x	x
COc1ccc2[nH]cc(C(=O)CN(C)C)c2c1	0	-6	-5.6	0.1	x	x	x	1	-11	-7
Nc1ccccc1C(=O)OCCOc1ccccc1	0	-1	-5.4	-6.6	x	x	x	-4	x	x
O=C1CN=C(c2ccc(Cl)cc2)c2oc3ccccc3c2N1	14	x	-5.5	0.0	x	x	x	-16	-20	2
C=CCN1C(=O)/C(=C/c2ccc3c(c2)CCCN3CCC)C(=O)NC1=S	1	99*	9.3	1.6	x	x	x	1	9	-9
O=C(c1cccc(Cl)c1)C1CCCN(Cc2cccc3cnccc23)C1 (configuration not stated)	-1	-3	-3.1	-0.8	-52	-75	-29	-2	-22	42
CCCN1CCc2cc(O)cc3c2[C@H]1Cc1ccc(O)c(O)c1-3	4	99*	1.7	0.4	x	x	x	1	x	-8
Cc1cccc(-n2c(O)c(/C=N/Nc3nc4c(c(=O)n(C)c(=O)n4C)n3C)c(=O)[nH]c2=S)c1	-11	x	-4.6	0.1	x	x	x	-5	-19	15
COC(=O)C1=C(c2ccc(-c3ccccc3)c(F)c2)C[C@@H]2CC[C@H]1N2C(=O)N1CCCC1	15	-2	-0.1	-0.7	-33	-50	-1.8	1	x	x
COc1ccccc1-n1c(CNCC2CCCO2)nc2ccccc2c1=O (configuration not stated)	5	-5	-5.1	1.4	0	4	5.2	-1	0	0
COc1ccc(-n2c(O)c(C(C)=NCCCn3ccnc3)c(=O)[nH]c2=O)cc1	-7	23	5.0	0.1	x	x	x	-2	-18	-12
CCCCN1C(=O)NC(=O)C2(Cc3cc(C)ccc3N(C)C2)C1=O (configuration not stated)	-2	-7	6.7	0.1	x	x	x	3	-10	0
Cc1ccccc1OP(N)(=O)Oc1ccccc1C	-3	-10	0.2	0.3	8	14	1.0	2	1	-3
OCCN1C2CCC1CC(O)(c1ccc(F)cc1)C2 (configuration not stated)	-11	-1	-2.0	-1.3	x	x	x	-2	-1	11
COc1ccc(CCNCc2ccccn2)cc1OC	-7	-5	-4.7	0.3	x	x	x	-5	13	-19
Cc1cccn2c(=O)c3c(nc12)N1CCc2ccccc2C1C1(C3)C(=O)NC(=O)N(C)C1=O (configuration not stated)	4	5	-5.3	0.6	x	x	x	4	0	14
Cc1c(N=Nc2c(O)n(-c3ccc(Br)cc3)c(=O)[nH]c2=O)c(=O)n(-c2ccccc2)n1C	-3	27	0.1	1.6	-35*	-10*	-8.8*	25	-6	5

Some of the compounds tested; rates above refer to the full screens.
